From PubChem
Rango-impB inh: Rango-importin beta binding inhibition; Q14974; Rango CFP/YFP FRET sensor + importin beta, 45 min; Potency, µM (top dose mostly 92.2 µM), for the others: at the top dose inhibition of complex formation; hit rate 0.031% among 340,000; AID 540263; active = rising FRET ratio curve, often small or poorly fitted; inconclusive = mostly compound fluorescence or quenching in the first reads; inactive = flat curves in all reads;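 further: potency means the concentration at half of the fitted maximal effect; 0% = DMSO wells and 100% = buffer wells lacking importin beta; nearly all actives have a fitted effect of over 15% in size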
Target sequence (Q14974 whole entry, looked up): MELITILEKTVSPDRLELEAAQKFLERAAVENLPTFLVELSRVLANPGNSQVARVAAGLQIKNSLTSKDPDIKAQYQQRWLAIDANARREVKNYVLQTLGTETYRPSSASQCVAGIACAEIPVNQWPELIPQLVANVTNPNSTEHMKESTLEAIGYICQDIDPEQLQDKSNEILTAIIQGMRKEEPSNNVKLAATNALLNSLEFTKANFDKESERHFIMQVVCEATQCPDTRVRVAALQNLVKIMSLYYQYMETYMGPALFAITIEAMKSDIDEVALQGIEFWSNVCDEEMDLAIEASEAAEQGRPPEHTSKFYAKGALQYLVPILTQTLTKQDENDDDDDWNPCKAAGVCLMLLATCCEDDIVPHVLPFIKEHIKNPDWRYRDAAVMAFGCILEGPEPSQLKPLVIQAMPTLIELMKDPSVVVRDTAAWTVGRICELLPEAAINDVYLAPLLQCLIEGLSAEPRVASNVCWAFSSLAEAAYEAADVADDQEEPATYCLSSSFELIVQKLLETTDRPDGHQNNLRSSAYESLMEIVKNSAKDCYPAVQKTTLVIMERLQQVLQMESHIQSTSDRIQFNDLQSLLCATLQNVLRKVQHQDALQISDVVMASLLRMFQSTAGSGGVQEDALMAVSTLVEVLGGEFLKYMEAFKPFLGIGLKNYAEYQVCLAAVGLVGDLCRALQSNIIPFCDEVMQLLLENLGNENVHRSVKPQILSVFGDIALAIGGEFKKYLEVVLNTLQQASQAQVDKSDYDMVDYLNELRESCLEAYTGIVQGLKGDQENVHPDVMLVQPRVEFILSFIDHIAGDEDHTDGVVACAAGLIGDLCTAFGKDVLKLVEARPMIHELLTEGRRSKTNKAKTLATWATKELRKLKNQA
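FRET biosensor (snurportin 1 IBB flanked by EYFP and cerulean), 50 nM, with compound 5 min, then 0.125 microM importin beta in PBS, 1 mM DTT, 0.02% Tween-20, 0.1% BSA. CFP/YFP ratio read after 45 min at room temperature; pre-read flags interference.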
GLA inh pH 4.5: alpha-galactosidase A (human) inhibition, pH 4.5 | P06280 | purified enzyme, 4-MU-alpha-Gal fluorescence, pH 4.5 | activity change, negative = inhibition, % at 105 µM | 230,000 tested, under 10 active | AID 1467; inconclusive = small, poorly fitted or top-dose-only inhibition, or a rising curve; inactive = flat fitted curve, though single readings scatter; no compound was filed as active;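 further: 0% = full activity with enzyme and -100% = basal without enzyme; dose as in the result columns while the protocol names 77 µM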
miR-21 FLuc: miR-21 reporter, rising signal | HeLa miR-21 FLuc reporter, luciferase, 48 h | Potency, µM (titrated, usually from 38.3 µM), for the others: at the highest dose reporter change, positive = more light | 340,000 tested, under 10 active | AID 2288; active = well fitted rising curve with a large enough effect; inconclusive = small, poorly fitted or top-dose-only effect; inactive = no such curve, though single readings can be large or run the other way;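 further: % of control where 0% means no effect; miR-21 action dims this reporter so a rising signal means less miR-21 action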
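Compounds were titrated across several concentrations (up to approximately 40 uM) and incubated 48 hours with HeLa miR-21-FLuc reporter cells (miR-21 target sequence downstream of FLuc, endogenous miR-21). Readout was firefly luciferase luminescence after lytic detection reagent.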
Rango dissoc inh: inhibitors of RanGTP-induced Rango-importin beta complex dissociation; O95149+P62826; Biochemical FRET Rango-importin beta, RanGTP-induced dissociation; Potency, µM (doses to about 46.1 µM), inactives show top-dose activity change, negative = inhibition; hit rate 0.071% among 340,000; active means falling FRET ratio curve, often poorly fitted, with flat reads before Ran was added; inconclusive means other falling curves, or compound fluorescence or quenching; inactive means flat or rising ratio curve;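 further: potency means the concentration at half of the fitted maximal effect; % of control where 0% means no effect; nearly all actives have a fitted effect of over 45% in size; -100% = wells without RanGTP and RCC1; the record marks most hits as doubtful in a second field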
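Recombinant Rango FRET biosensor (EYFP–snurportin 1 IBB–cerulean CFP10) at 0.1 uM premixed with 0.25 uM importin beta in PBS, 1 mM DTT, 0.02% Tween-20, 0.1% BSA. Compound added 5 min; RanGTP-RCC1 (0.6 uM Ran, 2 mM GTP, 0.2 uM RCC1) then triggers release, read at 45 min.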
An asterisk follows results filed as active; u = inconclusive; x = no result given; & = joins results of further samples. A portion of the library; the hit share may differ from the screen's.

Order of values – Rango-impB inh | GLA inh pH 4.5 | miR-21 FLuc | Rango dissoc inh
> CCOc1ccc(S(=O)(=O)N(CC)CC(=O)N2CCCC2)cc1
→ 0.8% | x | -3% | 1%
> CN(C)C(=O)CSc1nnc(CCNC(=O)OC(C)(C)C)o1
→ -0.2% | 1 | -1% | 6%
> O=C(NC(=S)Nn1cnc2c(cnn2-c2ccccc2)c1=O)c1ccccc1
→ 2.0% | -2 | -4% | -3%
> Cn1c(SCC(=O)Nc2ccc(Cl)cc2)nc(O)cc1=O
→ 3.0% | 8 | 8% | -3%
> CCN(CC)S(=O)(=O)c1ccc(N2CCOCC2)c(NC(=O)c2[nH]c(C)c(C(C)=O)c2C)c1
→ 2.0% | x | x | u
> COc1ccccc1-c1nnc(SCCN2CCOCC2)n1-c1ccc(C)cc1
→ -0.5% | 5 | -2% | -5%
> O=C(C1=C[C@@H](c2ccc(Br)cc2)C[C@@H](OCCCCO)O1)N1CCN(Cc2ccccc2)CC1
→ -2.5% | -5 | 27% | -21%
> CSc1nc2sc3c(c2c2nnnn12)CCCC3
→ u | 1 | 2% | -10%
> COc1cc(/C=N/NC(=O)CCn2nnc3ccccc32)ccc1O
→ 5.7% | 3 | -9% | 10%
> COc1ccc(NC(=O)c2oc3cc(C)c(C)cc3c2C)c(OC)c1
→ 0.0% | 2 | -7% | 14%

Entries of single compounds from above.
CN(C)C(=O)CSc1nnc(CCNC(=O)OC(C)(C)C)o1 in the list: Rango-impB inh: -0.2%; GLA inh pH 4.5: 1; miR-21 FLuc: -1%; Rango dissoc inh: 6%
Cn1c(SCC(=O)Nc2ccc(Cl)cc2)nc(O)cc1=O in the list: Rango-impB inh: 3.0%; GLA inh pH 4.5: 8; miR-21 FLuc: 8%; Rango dissoc inh: -3%
O=C(NC(=S)Nn1cnc2c(cnn2-c2ccccc2)c1=O)c1ccccc1 in the list: Rango-impB inh: 2.0%; GLA inh pH 4.5: -2; miR-21 FLuc: -4%; Rango dissoc inh: -3%

Going on with the list.
Order of values – Rango-impB inh | GLA inh pH 4.5 | miR-21 FLuc | Rango dissoc inh
> CC(CCc1ccccc1)NC(=O)CSc1ccccc1 (stereo not given)
→ 0.4% | 2 | -12% | -3%
> CC(C)CCn1nnnc1C(c1ccc(F)cc1)N1CCN(C(=O)c2ccco2)CC1 (stereo not given)
→ -2.7% | 1 | -1% | -9%
> O=C(NC1CCSc2ccccc21)c1ccc(C(F)(F)F)cc1 (stereo not given)
→ 2.5% | x | -5% | 27%
> CCN(C(=O)c1ccc(S(=O)(=O)N(C)C)cc1)C(C)C(=O)Nc1ccc(C)cc1 (stereo not given)
→ -1.1% | x | 6% | 7%
> Cc1noc(C)c1COC(=O)c1cccnc1SCC(=O)Nc1ccc2c(c1)OCO2
→ 5.0% | -1 | -32% | -6%
> O=C(O)C(F)(F)S(=O)(=O)O
→ -0.3% | -5 | 4% | 5%
> Cc1ccc(S(=O)(=O)CCC(=O)OCc2nnc(-c3ccccc3Br)o2)cc1
→ 2.7% | x | x | 21%
> Cc1cccc(NC(=O)C2CCN(S(=O)(=O)c3cccc4nsnc34)CC2)c1
→ 2.2% | -5 | 12%&10% | 26%
> C=CCn1c(C(C)(C)C)nc2ccccc21
→ -0.5% | -16 | -6% | 3%
> Cn1c(=O)c2c(nc(Sc3ccccc3N)n2C)n(C)c1=O
→ -0.2% | -7 | -15% | 2%
> CCOC(=O)c1sc(=NC(=O)c2ccccc2)n(C)c1C
→ -1.0% | 4 | -46% | -4%
> CC1=NN(C2=NS(=O)(=O)c3ccccc32)C(C)(O)C1 (stereo not given)
→ u | x | -4% | u
> CCOC(=O)N1CCN(C(=O)C2CCN(S(=O)(=O)c3ccc(OC)cc3)CC2)CC1
→ 3.5% | 1 | 1% | -6%
> Fc1ccc2c(c1)C1C=CCC1C(c1cc3c(cc1Br)OCO3)N2 (stereo not given)
→ 0.7% | -18 | 9% | -17%
> CCN1CCN(c2cc(C)c3cc(NC(=O)Cc4ccccc4OC)ccc3n2)CC1
→ 2.8% | 3 | -4% | 2%
> Nn1cc(-c2ccccc2)nc1SCC(=O)NCCc1ccccc1
→ 0.1% | 4 | -8% | -10%
> CC1CC(C)CN(C(=O)c2ccc(NC(=O)c3ccc(=O)[nH]c3)cc2)C1 (stereo not given)
→ 4.6% | 5 | -6% | -21%
> Cc1csc(SCC(=O)NC(C)c2ccc(F)cc2)n1 (stereo not given)
→ -3.0% | -1 | -1% | -18%
> CCCN1CCN(CC(=O)Nc2nnc(CC)s2)CC1
→ -0.6% | x | -2% | -1%
> COC(=O)[C@@]12CCCN1[C@H](c1ccc(-c3cccc(Cl)c3)c(OC)c1)[C@H]1C(=O)N(C)C(=O)[C@H]12
→ -4.1% | x | x | -4%
> COc1ccc(Nc2cc(Nc3ccc(OC)cc3)ncn2)cc1
→ 0.0% | x | 0% | -13%
> Cc1cc(=O)[nH]c(SCC(=O)Nc2ccc(F)c([N+](=O)[O-])c2)n1
→ 1.0% | -2 | 0% | 1%
> COc1ccc(-n2c(=O)c3ccccc3n(CC(=O)NC3CCCC3)c2=O)cc1
→ -1.7% | 3 | -1% | 5%
> CCN(CC1CCCN(CCc2cccc(OC)c2)C1)C(=O)c1ccoc1C (stereo not given)
→ -1.0% | x | 0% | -4%
> Cc1c(O)ccc2c(-c3ccccc3)cc(=O)oc12
→ u | x | 0% | u
> COC(CN(C)C(=O)C1CCC(CNS(=O)(=O)c2ccccc2)CC1)OC (stereo not given)
→ 2.4% | x | 2% | -9%
> Cc1oc2cc([N+](=O)[O-])c(O)c([N+](=O)[O-])c2c1C(=O)c1ccc(Cl)cc1
→ -0.9% | -10 | 15% | 20%
> COc1ccc(N=NC2=C(O)CC(C)(C)CC2=O)c(OC)c1
→ 52µM* | -9 | -55% | 15%
> Cc1cc(C)c2ccc3c(C)c(C)n(C)c3c2n1
→ 0.0% | 17 | -3% | 0%
> Cc1ccnc(NC(=O)C(C)n2cc([N+](=O)[O-])cn2)c1 (stereo not given)
→ 1.1% | 3 | 3% | 12%
> Cc1cc(=O)n2nc(N3CCC(C(=O)NCc4ccccc4F)CC3)sc2n1
→ 1.3% | x | -5%&-10% | 1%
> CC(=O)N1CCN(c2ccc(NC(=S)NC(=O)COc3ccc(C(C)(C)C)cc3)cc2)CC1
→ -1.3% | -1 | -4% | -13%
> COc1ccccc1-c1cc(-c2ccccc2)nc(SC(C(N)=O)c2ccccc2)c1C#N (stereo not given)
→ -3.5% | 3 | -10% | 8%
> Cc1cc(N2CCCC2=O)cc(C)c1S(=O)(=O)NCCOc1ccc(C(C)(C)C)cc1
→ 1.4% | -3 | 24% | -5%
> COC(=O)CCNC(=O)Cc1ccc(S(=O)(=O)N2CCCCC2)s1
→ -0.2% | x | x | 4%
> O=C(CSc1nnc2scc(-c3ccccc3)n12)N1CCN(Cc2ccccc2)CC1
→ 2.4% | -3 | -4% | -4%
> Cc1ccc(/C=N/OC(=O)c2c(C)noc2-c2snnc2C)cc1
→ -3.1% | 7 | -3% | -15%
> O=c1c(-c2ccc3c(c2)OCCO3)c(C(F)(F)F)oc2cc(O)cc(O)c12
→ -3.6% | -3 | 8% | 25%
> CCCCNC(=O)CSc1nc(COc2ccccc2)nc2ccccc12
→ -0.5% | 4 | -4% | u
> CCCC(C(=O)NC1CCCC1)N(C(=O)c1snc(C(N)=O)c1N)c1ccc(OCC)cc1 (stereo not given)
→ u | x | 2% | 19%
> Nc1ccccc1Nc1ccccc1
→ 2.9% | 0 | -2% | -6%
> O=C(CN1CCN(Cc2ccccc2)CC1)N/N=C/c1ccccc1F
→ 3.8% | -9 | -9% | 7%
> Cc1ccccc1NC(=O)c1c(F)c(F)c(F)c(F)c1F
→ 3.0% | 0 | -6% | -8%
> COCCNC(=O)/C(C#N)=C/c1c(N2CCN(c3ccc(OC)cc3)CC2)nc2c(C)cccn2c1=O
→ u | x | 0% | u
> CC(C)(CCO)NC(=S)NC1CC2C=CC1C2 (stereo not given)
→ 1.9% | -25 | -6% | 0%
> CC1(C)Cc2nc3sc4c(N5CCCC5)nnnc4c3cc2CO1
→ x | 7 | -1% | x
> COc1ccc(Cn2c(O)c(C=Nc3ccccc3)c3ccccc3c2=O)cc1
→ -3.4% | -12 | -1% | 0%
> CCOC(=O)/C(C#N)=C/c1c(N2CCN(C)CC2)nc2c(C)cccn2c1=O
→ u | x | -2% | -12%
> COCCNC(=O)[C@@H]1CSC2c3ccccc3C(=O)N21 (stereo not given in full)
→ -1.9% | x | 4% | -11%
> CN(C)C(=O)COC(=O)/C=C/c1ccccc1[N+](=O)[O-]
→ -0.8% | 4 | 4% | 7%

Some of these compounds in order of the Rango dissoc inh value, highest first.
Order of values – Rango-impB inh | GLA inh pH 4.5 | miR-21 FLuc | Rango dissoc inh
> O=C(CN1CCN(Cc2ccccc2)CC1)N/N=C/c1ccccc1F
→ 3.8% | -9 | -9% | 7%
> Nc1ccccc1Nc1ccccc1
→ 2.9% | 0 | -2% | -6%
> CCOC(=O)/C(C#N)=C/c1c(N2CCN(C)CC2)nc2c(C)cccn2c1=O
→ u | x | -2% | -12%

Structures from the list above that contain a CF3 group (2):
Order of values – Rango-impB inh | GLA inh pH 4.5 | miR-21 FLuc | Rango dissoc inh
> O=C(NC1CCSc2ccccc21)c1ccc(C(F)(F)F)cc1 (stereo not given)
→ 2.5% | x | -5% | 27%
> O=c1c(-c2ccc3c(c2)OCCO3)c(C(F)(F)F)oc2cc(O)cc(O)c12
→ -3.6% | -3 | 8% | 25%

Carrying on:
Order of values – Rango-impB inh | GLA inh pH 4.5 | miR-21 FLuc | Rango dissoc inh
> CCN(CC)CCOc1nc(C)nc2c1oc1ccccc12
→ -0.6% | 4 | -24% | -3%
> COc1cccc(-n2c(SC)nnc2-c2cnccn2)c1
→ -1.0% | 3 | -5% | 0%
> CC(=O)[C@@H]1[C@@H]2C(=O)N(c3ccc(F)c(Cl)c3)C(=O)[C@@H]2C2c3ccccc3C=CN21 (stereo not given in full)
→ x | 6 | -11% | x
> C=CCN1C(=O)C(CC(=O)Nc2ccc(OCC)cc2)N(Cc2ccccn2)C1=S (stereo not given)
→ 0.2% | -1 | 1% | 18%
> Cc1cc(C(=O)NCc2cccnc2)no1
→ 1.8% | -2 | 0% | 0%
> COC(=O)c1cc(C(=O)c2ccc(Cl)cc2Cl)cn1C
→ 5.1% | -17 | -24% | 0%
> Cc1ccc(-c2ccc(=O)n(Cc3ccc(F)cc3Cl)n2)cc1
→ 0.2% | x | -5% | -5%
> COc1ccc(/C=N/n2cnc3c(sc(=S)n3-c3ccccc3)c2=O)cc1
→ -1.2% | x | 2% | 2%
> O=C(/C=C/c1ccccc1)N(Cc1cccc(Cl)c1)C1CCS(=O)(=O)C1 (stereo not given)
→ -0.3% | 1 | 0% | -2%
> COc1ccc(CCN(C(=S)Nc2ccccc2)C2CC(=O)N(c3ccccc3)C2=O)cc1 (stereo not given)
→ 0.9% | -22 | -3% | -5%
> CCOC(=O)c1ccc(NC(=O)c2ccccc2C)cc1
→ 11% | -20 | -48% | -3%
> Cc1ccc2cc(C=O)c(Cl)nc2c1
→ 0.1% | -1 | -9% | -2%
> O=c1cc(Cn2ccnc2)c2cc3c(cc2o1)CCC3
→ 0.6% | 2 | -14% | -6%
> CCOC(=O)C(NC(C)=O)(Nc1ccc(S(=O)(=O)Nc2ccncn2)cc1)C(F)(F)F (stereo not given)
→ -1.5% | 3 | -13% | -3%
> Cc1c(C)n(C)c2ccc(C(=O)NCCc3ccco3)cc12
→ -2.9% | x | -57% | 0%
> O=C(Cn1c(=O)cnc2ccccc21)NNC(=O)c1ccc(Cl)cc1
→ 2.4% | x | x | 5%
> Cc1nn(-c2ccccc2)c(Cl)c1/C=C(/CC(=O)O)c1nc2ccccc2s1
→ -1.2% | x | x | -10%
> COc1ccc(C(=O)NC2CCN(C(=S)NCc3ccco3)CC2)cc1
→ -3.0% | 2 | 0% | -5%
> Cc1cccc(-n2c(C)n[nH]c2=S)c1C
→ 4.4% | 9 | 6% | 7%
